# High-throughput results: PubChem BioAssay, Fisher Drug Discovery Resource Center
# NPYLR7 ag: agonists of mosquito NPYLR7 receptor, primary screen, cell-based, Aedes aegypti, calcium fluorescence, mosquito biting behavior | Aedes aegypti neuropeptide Y-like receptor 7 (NPYLR7) | 270,000 compounds, 0.15% hits | activation, % at 10 µM | AID 1259423, 2018 | HEK293T NPYLR7/Galpha15, GCaMP6s calcium fluorescence; in the data active = activation above about 40%;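 note: 0% = vehicle and 100% = reference agonist at the receptor; some compounds past the cut are filed as inactive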
# NPYLR7 ag max-min: also measured in NPYLR7 ag; calls as there; activation, %; measured here: Max-Min RFU normalised activation; some inactives read as strong as hits;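 span of the calcium signal over five minutes; 0% = vehicle and 100% = native peptide agonist; compound fluorescence can raise it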
# The depositor's hits bear a star; & = joins results of further samples. These rows are one share of the data (hit frequency here may not be typical).
molecule,NPYLR7 ag,NPYLR7 ag max-min
CCOC(=O)C(c1cc(OC)ccc1OC)C1C=CC(NC(=O)c2oc3ccccc3c2C)C1 (stereo not drawn),2,-3
COCc1ccc(CN2CCC(Oc3ccc(C(=O)NC4CCCC4)cc3Cl)CC2)o1,6,5
Cc1ccc(CC2(NC(=O)/C=C/c3cnn(C)c3)CC2)cc1,-6,-6
Cc1ccc(CN2CCNC(=O)C2CC(=O)N2CCSCC2)o1 (stereo not drawn),24,10
Cc1ccccc1CN1CCNC(=O)C1CC(=O)NC1CCCCCCC1 (stereo not drawn),17,6
COCCNC(=O)c1ccc(CSc2nnc(Cc3ccccc3)n2-c2cccc(C(F)(F)F)c2)cc1,33,33
O=C1CN(O)C=C2N=c3ccccc3=C2N1c1ccccc1,17,7
CCc1ccc(CN2CCCC(CNC(=O)c3ccc[nH]3)C2)nc1 (stereo not drawn),3,2
COc1cccc(C(=O)Nc2ccccc2C2SCC(=O)N2c2ccc(OC)cc2OC)c1 (stereo not drawn),8,13
COc1cccc(Cn2c(=O)n(Cc3ccco3)c(=O)c3oc4ccccc4c32)c1,4,3
CC(=O)Nc1ccc(F)c(NC(=O)Cc2ccccc2)c1,-2,-1
COc1cc(Nc2ccc(NC(=O)c3ccccc3)cc2)nc(C)n1,8,-1
CC(=O)Nc1ccc2nc(CN3CCCC(CCC(=O)N4CCOCC4)C3)ccc2c1 (stereo not drawn),-1,-5
CCOc1ccc(-c2ncncc2-c2ccccc2)c(O)c1,0,-4
Cc1cc(C)nc(Nc2nc(C(N)Cc3ccc(C(F)(F)F)cc3)cs2)n1 (stereo not drawn),-5,-12
c1ccc(CC23CCCCC2=Nc2ccccc23)cc1 (stereo not drawn),-3,-9
Cc1cc(C(=O)N2CCN(Cc3ccccc3)CC2)nc2cc(-c3ccccc3)nn12,18,17
C=CCN1C(=O)CC(N2CCN(CC)CC2)C1=O (stereo not drawn),-3,23
COc1cccc([C@@H]2CCN(Cc3ccc(-n4cccn4)cc3)C[C@H]2O)c1,3,2
CCN1CC(C(=O)Nc2ccccc2C(C)C)CC1=O (stereo not drawn),0,1

# Next section.
molecule,NPYLR7 ag,NPYLR7 ag max-min
CC(C)(C)c1cc(NC(=O)CN2CCC(N3CCCC3=O)CC2)no1,-2,-7
O=C(C=C(C1CC1)C1CC1)NS(=O)(=O)N1CCCCC1,0,54
CC(=NCC1CCCO1)c1c(C)[nH]n(-c2ccc([N+](=O)[O-])cc2)c1=O (stereo not drawn),11,5
COc1ccc(CCC(=O)Nc2nc3ccc(Cl)cc3s2)cc1OC,-2,-9
COC(=O)c1cccc(S(=O)(=O)NCc2cc(C)no2)c1C,9,2
CC(C)COC(=O)N1CCCCC1c1cc(C(=O)NCc2ccc(F)cc2)no1 (stereo not drawn),4,2
Cc1ccc(C(C)CCN2CCN(Cc3ncccc3C)CC2)o1 (stereo not drawn),1,10
CCOC(=O)c1cnc(-c2ccncc2)nc1N1CCCC(C)C1 (stereo not drawn),19,19
CCC1C(=O)NCCN1c1ncnc2c1c(Br)nn2C (stereo not drawn),7,2
O=C(NC1CC1)C1CCN(C2CCN(C(=O)c3csc4c3CCCC4)CC2)CC1,-6,-5
Cc1ccc(C(=O)NC(CC(C)C)C(=O)N(C)C)cc1F (stereo not drawn),-1,-3
Cc1ccc(C#N)cc1NS(=O)(=O)c1cnc2c(c1)c(C)nn2C,1,1
CCn1ncnc1C1CC(=O)Nc2c1cnn2Cc1ccccc1Cl (stereo not drawn),-1,-5
O=C(Nc1ccccc1-c1cccs1)NC1CCCn2ncnc21 (stereo not drawn),1,-1
COc1ccc(C)cc1N1C(=O)CSC1c1cccc(NC(=O)Nc2ccc(Cl)cc2Cl)c1 (stereo not drawn),4,7
COc1ccc(CN(C(=O)[C@H](C)NC(=O)COc2ccccc2)C2CC2)cc1,10,7
FC(F)(F)c1ccccc1Oc1ccc2c(-c3cccnc3)noc2n1,20,10
NC(=O)c1cccc(NC(=O)c2ccc(F)c(Br)c2)n1,-2,-2
Cc1ccccc1CSc1nnc(CN)n1-c1ccc(Cl)cc1Cl,3,1
O=C(c1ccco1)N1CCCC(N2CCN(Cc3ccc4c(c3)OCO4)CC2)C1 (stereo not drawn),8,6

# Single records, from the list above.
# `COc1ccc(C)cc1N1C(=O)CSC1c1cccc(NC(=O)Nc2ccc(Cl)cc2Cl)c1` (stereo not drawn) is listed as NPYLR7 ag: 4; NPYLR7 ag max-min: 7
# `O=C(c1ccco1)N1CCCC(N2CCN(Cc3ccc4c(c3)OCO4)CC2)C1` (stereo not drawn) is listed as NPYLR7 ag: 8; NPYLR7 ag max-min: 6
# `NC(=O)c1cccc(NC(=O)c2ccc(F)c(Br)c2)n1` is listed as NPYLR7 ag: -2; NPYLR7 ag max-min: -2

# Further records
molecule,NPYLR7 ag,NPYLR7 ag max-min
O=C(c1cccc2cc[nH]c12)N(CC1CC1)CC(F)(F)F,5&-8,-9&-8
c1cncc(COC2CCN(Cc3ccc(C4CCCCO4)o3)CC2)c1 (stereo not drawn),3,0
CC(c1cccs1)n1nccc1NC(=O)CCC(=O)O (stereo not drawn),0&0,-2&-1
COC(=O)c1cc(OC)c(OC)cc1NC(=O)CSc1nc2ccccc2nc1N1CCOCC1,-2,0
Cc1ccc(-c2nnc(SCc3ccc(C(=O)NCc4ccncc4)cc3)n2-c2ccccc2F)cc1,26,36
O=C(CCC(=O)N1CCc2c([nH]c3ccccc23)C1)NC[C@@H]1CCCO1,-7,-12
CCC(c1cccnc1)N(C)C(=O)Cc1ccc2nc(C)[nH]c2c1 (stereo not drawn),5,3
O=C(COc1ccc(Cl)cc1)Nc1nc2ccccc2s1,-12,-15
CCC(=O)N1CCc2cc(C(=O)Nc3ccccc3-n3nc(C)cc3C)ccc21,12,7
Cc1ccccc1CSc1nc(Oc2cccc(F)c2)cc(C(C)C)n1,3,13
CS(=O)(=O)N1CCN(c2ncnc3c2nnn3-c2ccccc2)CC1,-9,-11
CCOC(=O)C1(Cc2ccc(OC)cc2)CCN(C(=O)CSc2nncn2C)CC1,4,4
CCOC(=O)c1nn(-c2ccccc2Cl)c(=O)cc1OCC(=O)Nc1ccccc1,10,6
CC1=CC[C@@H]2CN(C(=O)CCCn3cncn3)C[C@@H]2C1,-2,-4
O=C(CC1C=CCC1)NCC(=O)Nc1ccc(-n2cncn2)cc1 (stereo not drawn),-2,-2
Cc1nc(-c2ccc3c(c2)CC(C)N3S(C)(=O)=O)cs1 (stereo not drawn),3,2
NC1=NC(c2cccc(Cl)c2)n2c(nc3ccccc32)N1 (stereo not drawn),6&4,1&3
O=C(C1CC2CCC1C2)N1CCCc2cc(F)c(F)cc21 (stereo not drawn),3,2
COc1ncccc1-c1ccc(NS(C)(=O)=O)nc1,-2,-2
CN(C)S(=O)(=O)c1ccc2c(c1)CCN2S(=O)(=O)c1ccccc1F,-2,-4

# More results.
molecule,NPYLR7 ag,NPYLR7 ag max-min
FC(F)C(F)(F)Sc1nc2ccccc2[nH]1,-1,-1
CC1Oc2ccccc2OC1C(=O)N(C)Cc1ccsc1 (stereo not drawn),7,2
COc1ccc(-c2cc(C(=O)Nc3ccccc3C(N)=O)c3ccccc3n2)cc1OC,-1,-9
COc1cccc(C(=O)N2CCN(c3ccc(-n4ccc(C)n4)nn3)CC2)c1OC,-7,-12
CN1C[C@@H](N)C[C@H]1C(=O)NCc1csc2ccc(Cl)cc12,4,3
CC(C)C1CN(C(=O)CCc2cnn(C)c2)CCCN1Cc1ccc(F)cc1 (stereo not drawn),2,1
CCCn1nc(C(=O)Nc2cc(OC)c(OC)c(OC)c2)ccc1=O,11,10
COc1ccc(S(=O)(=O)Nc2ccc(C)c(O)c2)cc1Cl,6,1
Cc1noc(C)c1CC(=O)NC1(C(=O)O)CCCCC1,-4,423
O=C1C2CC=CCC2C(=O)N1c1ccc(Cl)c(F)c1 (stereo not drawn),-3,-3
C=C(C)c1nc2ccccc2c(=O)o1,2,2
COc1ccc(CN2CCC2(C)C(=O)Nc2ccc3c(c2)CCN3C(C)=O)c2ccccc12 (stereo not drawn),8,3
CC(C)C(NCc1cc(=O)n2ccsc2n1)c1ccc2c(c1)OCCO2 (stereo not drawn),4,-1
O=C(c1cncc(Br)c1)N1CCN(Cc2cc(=O)c(OCc3ccccc3Cl)co2)CC1,26,19
COc1ccc(-n2cnnn2)cc1,1,3
O=C(O)CN1C(=O)/C(=C\c2cc(Br)ccc2OCc2ccccc2F)SC1=S,-8,-11
CC(OC(=O)C1CCCN(C(=O)C2CC2)C1)c1nc2ncc(Br)cc2[nH]1 (stereo not drawn),-5,-5
Cn1cc(CN2CCCC(C(=O)c3ccc4c(c3)OCO4)C2)c2ccccc21 (stereo not drawn),-4,-9
Cc1nn(C)c(Cl)c1-c1c(-c2ccccc2)ncn1C1CC=CC1,17,6
N#CC1(NC(=O)/C=C/c2ccc(F)cc2)CCSC1 (stereo not drawn),-1,-3

# Some values from the list:
# CC(C)C(NCc1cc(=O)n2ccsc2n1)c1ccc2c(c1)OCCO2 (stereo not drawn) in NPYLR7 ag max-min: -1
# CN1C[C@@H](N)C[C@H]1C(=O)NCc1csc2ccc(Cl)cc12 in NPYLR7 ag max-min: 3
# CC1Oc2ccccc2OC1C(=O)N(C)Cc1ccsc1 (stereo not drawn) in NPYLR7 ag max-min: 2
# CC(OC(=O)C1CCCN(C(=O)C2CC2)C1)c1nc2ncc(Br)cc2[nH]1 (stereo not drawn) in NPYLR7 ag max-min: -5
# Cc1nn(C)c(Cl)c1-c1c(-c2ccccc2)ncn1C1CC=CC1 in NPYLR7 ag: 17
# COc1ccc(-c2cc(C(=O)Nc3ccccc3C(N)=O)c3ccccc3n2)cc1OC in NPYLR7 ag max-min: -9
# Cc1noc(C)c1CC(=O)NC1(C(=O)O)CCCCC1 in NPYLR7 ag: -4

# Continuation.
molecule,NPYLR7 ag,NPYLR7 ag max-min
C=CCNC(=O)C(C1CCCC1)N1CCN(C(=O)CCc2ccccc2)CC1 (stereo not drawn),-9,-2
CC(=O)Nc1ccc(SCCCC(=O)Nc2ccc(C)c(F)c2)nn1,-1,-1
N#CCOc1cc(C(F)(F)F)cc(C(F)(F)F)c1,4,5
CN(Cc1cc(-c2cccnc2)no1)C(=O)c1cccc(-c2ccc(O)cc2)c1,5,2
Cc1noc(C)c1NCc1ccc(N2CCOCC2)cc1,-20,-21
Cc1ccc(NC(=O)N(CC(=O)N(Cc2ccc3c(c2)OCO3)Cc2ccco2)CC(C)C)cc1Cl,-5,-4
O=C(CCN(c1nc(-c2ccco2)nc2ccccc12)C1CC1)Nc1ccc(F)cc1,25,31
C=CCn1cc(CNCc2ccc(F)cc2Cl)c(C)n1,6,8

# Some of these compounds in order of molar mass, high to low.
molecule,NPYLR7 ag,NPYLR7 ag max-min
O=C(CCN(c1nc(-c2ccco2)nc2ccccc12)C1CC1)Nc1ccc(F)cc1,25,31
C=CCNC(=O)C(C1CCCC1)N1CCN(C(=O)CCc2ccccc2)CC1 (stereo not drawn),-9,-2
CC(=O)Nc1ccc(SCCCC(=O)Nc2ccc(C)c(F)c2)nn1,-1,-1
C=CCn1cc(CNCc2ccc(F)cc2Cl)c(C)n1,6,8
Cc1noc(C)c1NCc1ccc(N2CCOCC2)cc1,-20,-21
N#CC1(NC(=O)/C=C/c2ccc(F)cc2)CCSC1 (stereo not drawn),-1,-3
N#CCOc1cc(C(F)(F)F)cc(C(F)(F)F)c1,4,5
